AID504770 – growth inhibition of E. coli YBA685, primary screen, V. cholerae RctB inhibitors | E. coli YBA685 rctB-dependent plasmid, OD600 growth, 3 h; active compounds read low | 130,000 tested, 0.27% active | z-score (concentration not given with the values);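 active means z-score under -2 on both plates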;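 further: wells of about 30 µL received 100 nL stock; score is relative to mean and SD of the test wells; the first replicate is given; strong numbers were not always called active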
CapD inh – Bacillus anthracis CapD inhibitors, primary screen, biochemical, fluorescence intensity. CapD gamma-glutamyltranspeptidase (Bacillus anthracis Ames Ancestor). purified CapD enzyme, fluorescence intensity read-out; active compounds read low; some hits fall short of the stated cut. z-score (concentration not given with the values). 140,000 tested, 0.23% active. AID 492967, 2010;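 active means z-score under -4 in either of two replicates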;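 further: stock transfer was 100 nL into about 40 µL; score is relative to mean and spread of the plate; one replicate is shown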
* hit, by the source's call; x = no result given. These rows are one share of the data (hit frequency here may not be typical).

SMILES | AID504770 | CapD inh
Cc1ccc(-c2nn(Cc3ccccc3)cc2C(=O)N2CCC2)cc1 | -0.65 | x
CN(C)/C=N/C(=S)N1CCOCC1 | -0.25 | -0.645
CCCN(CCC)S(=O)(=O)c1ccc(C(=O)NC(=S)Nc2ccc(F)cc2)cc1 | 0.25 | 0.1
CCCc1ccc(/C=N/NC(=O)c2cccc(OC)c2)cc1 | x | -0.435
Cc1onc(-c2c(Cl)cccc2Cl)c1C(N)=S | x | 0.56
CC(=O)Nc1sc2c(c1C#N)CCN(C(C)=O)C2 | -0.35 | x
CCOC(=O)c1cccc(-c2ccc(/C=C3\C(=O)N(c4cccc(C(=O)O)c4)N=C3C)o2)c1 | x | -0.05
O=C(CSc1ccccn1)c1ccc2c(c1)OCO2 | 0.05 | -0.675
Cc1c(C(c2ccc(OCc3ccccc3)cc2)c2c(C)n(C)n(-c3ccccc3)c2=O)c(=O)n(-c2ccccc2)n1C | x | 5.6
CC(C)(C)C1CCCCC1NC(=O)c1ccncc1 (stereo not given) | 0.1 | 0.69
O=C(N=Nc1c(O)n(CN2CCOCC2)c2ccc(Br)cc12)c1ccc(Br)cc1 | -0.55 | -0.655
COCCNc1nc(SCC(=O)c2ccccc2)nc2ccccc12 | x | 0.99
COC(=O)C(NC(=O)c1ccc(Cl)cc1Cl)C(C)C (stereo not given) | -0.9 | -0.06
CCOc1ccc(NC(=O)Cn2c3c(c(-c4ccccc4)cc2=O)CCCC3)cc1 | 0.9 | 5.81
CC1CCCC(C)N1C(=O)COC(=O)CN1C(=O)c2ccccc2C1=O (stereo not given) | 0.05 | x
Cc1noc(C)c1CSCC(=O)O | -0.45 | x
CCN(CC)C(=O)c1cnc(-c2ccccc2)nc1C1CCNCC1 | 0.8 | -0.3
O=C(O)CNC(=O)/C=C/c1ccccc1 | -0.65 | 0.355
N#CC1(C#N)[C@@H]2c3ccccc3C=CN2[C@@H](C(N)=O)[C@@H]1c1ccccc1F | x | 5.94
Cc1cc(C)nc(NS(=O)(=O)c2ccc(NC(=O)COc3ccc4ccccc4c3)cc2)n1 | x | 0.605
CC(=O)NC(C)c1nc2ccccc2n1C (stereo not given) | 0.5 | 0.025
CCOC(=O)C1Cc2c([nH]c3ccccc23)CN1 (stereo not given) | -1.85 | x
CC1=NN(c2ccc(C(=O)NC(CCC(=O)OC(C)(C)C)C(=O)OC(C)(C)C)cc2)C(=O)C1 (stereo not given) | x | -1.13
CC1CC(C)CN(C(=O)c2ccc(C(F)(F)F)cc2)C1 (stereo not given) | -0.2 | x
CC(C)(CNC(=O)Nc1ccc(Cl)c(Cl)c1)N1CCOCC1 | 0.9 | x

Gathered by group, those above containing a halogen.
SMILES | AID504770 | CapD inh
CCCN(CCC)S(=O)(=O)c1ccc(C(=O)NC(=S)Nc2ccc(F)cc2)cc1 | 0.25 | 0.1
Cc1onc(-c2c(Cl)cccc2Cl)c1C(N)=S | x | 0.56
O=C(N=Nc1c(O)n(CN2CCOCC2)c2ccc(Br)cc12)c1ccc(Br)cc1 | -0.55 | -0.655
COC(=O)C(NC(=O)c1ccc(Cl)cc1Cl)C(C)C (stereo not given) | -0.9 | -0.06
N#CC1(C#N)[C@@H]2c3ccccc3C=CN2[C@@H](C(N)=O)[C@@H]1c1ccccc1F | x | 5.94
CC1CC(C)CN(C(=O)c2ccc(C(F)(F)F)cc2)C1 (stereo not given) | -0.2 | x
CC(C)(CNC(=O)Nc1ccc(Cl)c(Cl)c1)N1CCOCC1 | 0.9 | x

Going on with the list:
SMILES | AID504770 | CapD inh
CC(=O)Nc1ccc(OCCOc2ccc(/C=C3/C(=N)N4C=CSC4=NC3=O)cc2)cc1 | 2.1 | 7.28
CCCN(CCC)S(=O)(=O)c1ccc2c(c1)CCCN2C(C)=O | -1.1 | -1.75
Cc1ccc(CNC(=O)c2noc(C)c2Cn2nc(C)cc2C)cc1 | 0.3 | -0.435
Cc1ccc(C=Nc2ccc(Cl)cc2)o1 | 1.15 | 0.685
COc1cccc(C2C3=C(NCCN=C3c3ccc(Cl)cc3)C(=O)N2c2ccccc2)c1 (stereo not given) | x | -0.39
CSc1ccc(CCNC(=O)C(C)n2sc3ccccc3c2=O)cc1 (stereo not given) | -0.65 | -1.09
CCN(CC)C(=O)COc1ccc2c(CC(=O)O)coc2c1 | -2.6* | x
Cc1nc(C)n(C(C)CNS(=O)(=O)c2ccc(C)c(C)c2)n1 (stereo not given) | -0.65 | x
O=C(CSc1nnc(CNC(=O)c2cccs2)o1)Nc1ccccc1 | -0.5 | x
COc1ccc(-c2csc(Nc3ccc(S(=O)(=O)Nc4cc(C)on4)cc3)n2)cc1C | -0.45 | -0.175
CCOc1cnc(-c2ccccc2)o1 | -1.5 | 2.38
C[N+]1(CC(=O)OCCCc2ccccc2)CCCCC1 | 0.5 | -0.335
O=C(O)CCC(C(=O)O)N1C(=O)/C(=C/C=C/c2ccco2)SC1=S (stereo not given) | 0.75 | x
Cc1cccc(-n2nc(C)c3c(C)cc(=O)oc32)c1 | -3.15* | 1.03
O=C(Nc1ccccc1)N1CCCN(c2c(Cl)cncc2Cl)CC1 | -1.15 | 0.165
Cc1ccc(NC(=O)c2oc3ccc(S(=O)(=O)N4CCCC4)cc3c2C)c(C)c1 | -0.55 | 0.62
Nc1ccc(/C=C\C(=O)O)cc1 | 1.75 | 7.94
COc1ccc(/C=C2/SC(=O)N(CC(=O)Nc3ccc(S(=O)(=O)Nc4nc(C)cc(C)n4)cc3)C2=O)cc1OC | x | 0.485
O=C(CCCn1c(=O)oc2ccccc21)NNc1cccc(C(=O)O)c1 | -0.6 | x
CSc1c(NC(=O)/C=C\C(=O)O)cccc1C(F)(F)F | -0.05 | 0.355
N#C/C(C(N)=O)=C(/S)Nc1ccccc1 | -3.8* | x
COCc1cc(C)nc(SCC(=O)OC(C)C)c1C#N | -1.15 | -0.02
CCCCOC(=O)c1ccc(N2C(=O)C3C4c5ccccc5C(c5ccccc54)C3C2=O)cc1 (stereo not given) | x | -0.115
COC(=O)Nc1ncc(CN2CCC(C)CC2)s1 | 0.15 | 0.125
Nc1ccc2nc3c(=O)[nH]c(=O)[nH]c3nc2c1 | x | -0.85
SMILES | AID504770 | CapD inh
CCCc1[nH]n(-c2ccc(F)cc2)c(=O)c1C=NCCCn1ccnc1 | x | -0.29
CC(C)C(C#N)N1CCNCC1 (stereo not given) | -0.5 | x
N#CCN1CCC(c2cc(-c3ccc(Cl)cc3Cl)n[nH]2)CC1 | -0.85 | 0.305
O=C1/C(=C/N(C(=O)c2cccc(Cl)c2)c2ccc(Cl)cc2)Sc2ccccc21 | x | -0.695
CC1=[N+](C)c2cc(C(F)(F)F)ccc2C1(C)C | -0.5 | 1.09
CC(C)Oc1ccc(-c2[nH]ncc2-c2ccc(F)cc2)c(O)c1 | 0.9 | 0.51
CCCc1ccccc1OCCNC(=O)c1cc(=O)n(C)c(=O)n1C | 0.05 | x
OCCNC(=S)Nc1ccc(Oc2ccccc2)cc1 | -1.55 | -0.075
Cc1oc(N)c(S(=O)(=O)/C(C#N)=C/c2cc(Cl)cc(Cl)c2)c1C | -1.2 | 0.235
O=C(NC1CCCC1)C(Cc1ccccc1)n1cccc1 (stereo not given) | -2.25 | -0.425
CCc1nn(C(C)C(=O)N(C)Cc2ccccc2)c(=O)c2cc3occc3n12 (stereo not given) | -0.9 | 0.17
CCNC(=O)N(Cc1ccccc1)Cc1cccnc1 | -0.3 | 0.96
O=C1c2ccccc2S(=O)(=O)N1C(=O)c1cc(F)c(F)c(F)c1F | -1.2 | -0.525
CCN(CC)CC(=O)N1c2ccccc2NC(=O)CC1C (stereo not given) | 0.05 | -0.745
CC(=O)c1ccc(S(=O)(=O)N2CCCC2C(N)=O)cc1 (stereo not given) | x | 0.985
Cc1nc2ccccc2c(=O)n1NC(=O)c1c(O)c2c(n(CC(C)C)c1=O)CCCC2 | -1.05 | 9
Cc1[nH]c2ccccc2c1C(=O)Cn1nnc(-c2cccc(C(F)(F)F)c2)n1 | 0.35 | 0.185
CCCC1=C(C(=O)OCC)C(c2cc(Br)c(O)c(OC)c2)NC(=O)N1 (stereo not given) | 0.55 | 0.58
COc1ccc(-c2[nH]nc3c2C(c2ccc(OC(=O)N4CCOCC4)c(OC)c2)C(C#N)=C(N)O3)cc1 (stereo not given) | x | -0.075
COc1ccc(S(=O)(=O)N2CCc3ccccc32)cc1C(=O)N1CCC(C)CC1 | -0.65 | x
Cc1ccccc1-n1c(SCc2cccc(C#N)c2)nnc1-c1cc2occc2n1C | -0.1 | -0.015
CCOC(=O)C1=C(N)Oc2cc(O)ccc2C1c1ccc([N+](=O)[O-])cc1 (stereo not given) | x | -0.75
COc1ccnc2cc(Cl)ccc12 | -0.45 | 0.3
NC(=O)Nn1c(CCC(=O)O)ccc1-c1ccc(Cl)cc1 | 0.55 | x
O=C(O)c1ccc(N2CCCC2=O)cc1 | -0.45 | 0.835

Fetched by structure from the entries so far:
SMILES | AID504770 | CapD inh
COc1ccc(S(=O)(=O)N2CCc3ccccc32)cc1C(=O)N1CCC(C)CC1 | -0.65 | x
COc1ccnc2cc(Cl)ccc12 | -0.45 | 0.3
CCOC(=O)C1=C(N)Oc2cc(O)ccc2C1c1ccc([N+](=O)[O-])cc1 (stereo not given) | x | -0.75
O=C1/C(=C/N(C(=O)c2cccc(Cl)c2)c2ccc(Cl)cc2)Sc2ccccc21 | x | -0.695
CCNC(=O)N(Cc1ccccc1)Cc1cccnc1 | -0.3 | 0.96

In the list so far, these have an NH in an aromatic ring.
SMILES | AID504770 | CapD inh
CCOC(=O)C1Cc2c([nH]c3ccccc23)CN1 (stereo not given) | -1.85 | x
Nc1ccc2nc3c(=O)[nH]c(=O)[nH]c3nc2c1 | x | -0.85
CCCc1[nH]n(-c2ccc(F)cc2)c(=O)c1C=NCCCn1ccnc1 | x | -0.29
N#CCN1CCC(c2cc(-c3ccc(Cl)cc3Cl)n[nH]2)CC1 | -0.85 | 0.305
CC(C)Oc1ccc(-c2[nH]ncc2-c2ccc(F)cc2)c(O)c1 | 0.9 | 0.51
Cc1[nH]c2ccccc2c1C(=O)Cn1nnc(-c2cccc(C(F)(F)F)c2)n1 | 0.35 | 0.185
COc1ccc(-c2[nH]nc3c2C(c2ccc(OC(=O)N4CCOCC4)c(OC)c2)C(C#N)=C(N)O3)cc1 (stereo not given) | x | -0.075

The listing continues.
SMILES | AID504770 | CapD inh
CCCc1cc(=O)[nH]c(N/N=C/C=C\c2ccccc2)n1 | -1.2 | -1.83
O=S(=O)(c1cccs1)N1CCN(c2ccccc2Cl)CC1 | -0.1 | -0.58
CC(=O)N1CCN(C(=O)c2ccc(N3CC4CC(C3)c3cccc(=O)n3C4)c(NC(=O)c3ccc(C(C)(C)C)cc3)c2)CC1 (stereo not given) | x | -0.085
CCOc1ccc(CNC(=O)Cn2ncc3c(=O)oc4ccccc4c32)cc1 | 0.6 | -0.375
COc1ccc(N=C2c3ccccc3-c3nc4ccccc4nc32)cc1 | -1 | 0.005
CSc1ccccc1NC(=S)Nc1cccnc1 | -1 | -0.055
CN(c1ccc(Br)cc1)S(=O)(=O)c1ccc2[nH]cc(C(=O)NCc3cccnc3)c(=O)c2c1 | x | 1.29
COc1cc(CNC(=O)Cn2c(=O)c3cccn3c3ccc(F)cc32)cc(OC)c1OC | -0.15 | 0.96
COc1ccc(/C=C2\N=C(SCC(=O)NCc3ccco3)N(c3cc(C)cc(C)c3)C2=O)cc1 | 0.45 | x
O=S1(=O)c2ccccc2S(=O)(=O)N1c1ccc(Oc2ccc3ccccc3c2Cl)c(Cl)c1 | x | -0.205
Cc1ccc(C)c(N2C(=O)CC3CS(=O)(=O)CC32)c1 (stereo not given) | 0.6 | 0.18
N#CCNC(=O)Cc1ccccc1 | 1.6 | -0.155
Cc1ccccc1-c1noc2ncnc(NCCCO)c12 | 1.1 | 0.65
O=C(O)Cc1n[nH]c(=S)n1Cc1ccccc1 | 1.15 | x
S=C(N/N=C\c1ccn[nH]1)Nc1ccc(Cl)cc1 | 0.25 | -0.97
CCOC(=O)c1sc(NC(=S)Nc2ccc(N3CCOCC3)c3nonc23)c(C(=O)OCC)c1C | 1.25 | -0.07
O=C(CC1Sc2ccc(C(F)(F)F)cc2NC1=O)NC1CCCCC1 (stereo not given) | -0.05 | 0.02
CCCn1nnnc1NCc1cc(Cl)c(OCc2cccs2)c(OC)c1 | 0 | x
Cc1cc(NC(=O)c2ccc(S(=O)(=O)N3CCCC3)cc2)nc2c1c(=O)oc1ccccc12 | -0.2 | 10.2
O=C(O)COc1ccc(-c2nnco2)cc1 | 0.15 | x
Cc1ccc(CC(C#N)Sc2nnc(Cc3ccccc3)o2)cc1 (stereo not given) | 0.8 | x
CSc1ccc([C@@H]2[C@@H](C(=O)C34CC5CC(CC(C5)C3)C4)N3c4ccccc4C=C[C@@H]3C2(C#N)C#N)cc1 | x | -0.235
CC(C)c1ccccc1NC(=O)COC(=O)c1ccc(N)cc1 | 0.3 | 0.345
Cn1nccc1-c1ccc(Oc2cccc(Cl)c2C#N)cc1 | x | 2.46
Cc1cc(C)c2[nH]c(C)c(CN(C)C3CCCCC3)c(=O)c2c1 | -0.3 | 13.6
CCOc1ccc(NC(N)=O)cc1 | x | 0.505

Bioassay records from PubChem BioAssay.
